Screening results as filed in PubChem BioAssay.
miR-21 FLuc – qHTS Assay for Modulators of miRNAs and/orActivators of miR-21 | HeLa miR-21 FLuc reporter, luciferase, 48 h | Potency, µM (series often up to 38.3 µM), for inactives: at the highest dose reporter change, positive = more light | 340,000 tested, under 10 active | AID 2288, 2010; active = well fitted rising curve with a large enough effect; inconclusive = small, poorly fitted or top-dose-only effect; inactive = no such curve, though single readings can be large or run the other way;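 note: % of control where 0% means no effect; miR-21 action dims this reporter so a rising signal means less miR-21 action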
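Luminescence from a firefly luciferase reporter carrying a miR-21 binding site downstream, stably expressed under a CMV promoter in HeLa cells that make miR-21 endogenously, reports miRNA modulation after 48 h compound exposure up to approximately 40uM final.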
GLA inh pH 4.5 – qHTS Assay for Inhibitors of Human alpha-Galactosidase at pH 4.5; Alpha-galactosidase A (Homo sapiens), P06280; purified enzyme, 4-MU-alpha-Gal fluorescence, pH 4.5; activity change, negative = inhibition, % at 105 µM; 230,000 tested, under 10 active; AID 1467, 2008; inconclusive = small, poorly fitted or top-dose-only inhibition, or a rising curve; inactive = flat fitted curve, though single readings scatter; no compound was filed as active;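 note: 0% = full activity with enzyme and -100% = basal without enzyme; dose as in the result columns while the protocol names 77 µM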
Rango complex inh – qHTS Assay for Inhibitors of Rango (Ran-regulated importin-beta cargo) - Importin beta complex formation. Importin subunit beta-1 (Homo sapiens), Q14974. Rango CFP/YFP FRET sensor + importin beta, 45 min. Potency, µM (doses to about 92.2 µM), for the others: at the top dose inhibition of complex formation. actives 0.031% (n = 340,000). AID 540263, 2011; active = rising FRET ratio curve, often small or poorly fitted; inconclusive = mostly compound fluorescence or quenching in the first reads; inactive = flat curves in all reads;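 note: potency is the fitted concentration of half-maximal effect; 0% = DMSO wells and 100% = buffer wells lacking importin beta; nearly all actives have a fitted effect of over 15% in size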
Target sequence (Q14974 whole entry, looked up): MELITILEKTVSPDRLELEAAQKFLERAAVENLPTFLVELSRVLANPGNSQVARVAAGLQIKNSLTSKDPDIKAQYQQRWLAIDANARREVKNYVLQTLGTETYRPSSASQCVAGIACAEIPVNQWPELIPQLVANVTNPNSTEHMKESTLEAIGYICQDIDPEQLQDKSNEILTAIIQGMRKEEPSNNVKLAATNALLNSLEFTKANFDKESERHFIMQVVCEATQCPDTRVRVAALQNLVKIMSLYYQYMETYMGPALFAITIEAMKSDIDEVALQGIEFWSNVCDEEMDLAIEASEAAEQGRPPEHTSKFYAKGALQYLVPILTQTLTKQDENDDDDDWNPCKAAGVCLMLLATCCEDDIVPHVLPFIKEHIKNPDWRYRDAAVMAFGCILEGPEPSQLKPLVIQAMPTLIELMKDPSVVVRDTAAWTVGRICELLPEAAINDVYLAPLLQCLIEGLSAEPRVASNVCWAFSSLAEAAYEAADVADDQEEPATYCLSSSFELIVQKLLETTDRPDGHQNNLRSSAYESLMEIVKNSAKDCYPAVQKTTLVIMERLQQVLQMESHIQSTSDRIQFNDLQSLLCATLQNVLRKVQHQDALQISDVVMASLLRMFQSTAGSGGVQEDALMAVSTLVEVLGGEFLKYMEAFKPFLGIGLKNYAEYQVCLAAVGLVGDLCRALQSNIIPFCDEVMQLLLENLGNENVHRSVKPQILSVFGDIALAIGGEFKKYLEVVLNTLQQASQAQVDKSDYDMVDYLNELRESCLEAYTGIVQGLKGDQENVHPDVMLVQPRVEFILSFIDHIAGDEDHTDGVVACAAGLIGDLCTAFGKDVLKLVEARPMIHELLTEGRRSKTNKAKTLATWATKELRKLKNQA
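Inhibition scored from the CFP 486 nm/YFP 530 nm FRET ratio 45 min after adding 0.125 microM importin beta to 50 nM Rango biosensor preincubated 5 min with compound (room temperature, PBS with DTT, Tween-20, BSA). No-importin wells as positive control.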
Rango dissoc inh – qHTS Assay for Inhibitors of RanGTP induced Rango (Ran-regulated importin-beta cargo) - Importin beta complex dissociation; Biochemical FRET Rango-importin beta, RanGTP-induced dissociation; actives 0.071% (n = 340,000); Snurportin-1 (Homo sapiens) + GTP-binding nuclear protein Ran (Homo sapiens) + Importin …; Potency, µM (highest dose often 46.1 µM), without a hit: at the highest dose activity change, negative = inhibition; active means falling FRET ratio curve, often poorly fitted, with flat reads before Ran was added; inconclusive means other falling curves, or compound fluorescence or quenching; inactive means flat or rising ratio curve;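 note: potency is the fitted concentration of half-maximal effect; % of control where 0% means no effect; nearly all actives have a fitted effect of over 45% in size; -100% = wells without RanGTP and RCC1; the record marks most hits as doubtful in a second field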
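Compounds sat 5 min at room temperature with 0.1 uM Rango biosensor plus 0.25 uM importin beta, then FRET pre-read. RanGTP-RCC1 (0.6 uM Ran, 2mM GTP, 0.2 uM RCC1) added for 45 min, and the CFP/YFP post-read measured blocked complex dissociation.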
Active calls of the source: *. This is a subset. The share of hits here may be higher or lower than overall.

How did Cc1ccc2c(c1)C(=O)C(=O)N2CC1COc2ccccc2O1 (stereo not drawn) do in these assays?
miR-21 FLuc: 3%; Rango complex inh: 0.5%; Rango dissoc inh: -1%

Results for COc1ccc(-c2[nH]c(-c3ccc(F)cc3)nc2SCC(=O)NCc2ccco2)cc1OC ?
miR-21 FLuc: 1%; GLA inh pH 4.5: 1; Rango complex inh: 0.0%; Rango dissoc inh: 0%

Results for C=CCOC(=O)C(=O)/C=C/c1coc2ccccc2c1=O ?
miR-21 FLuc: 1%; GLA inh pH 4.5: 6; Rango complex inh: inconclusive; Rango dissoc inh: -22%

What do the screens show for `Cc1cccc(Nc2nnc(SCC(=O)Nc3ccccc3[N+](=O)[O-])s2)c1C`?
miR-21 FLuc: -4%; GLA inh pH 4.5: 5; Rango complex inh: 6.1%; Rango dissoc inh: inconclusive

How did O=C(Cn1cc2c(n1)CCCCC2)N1CCCCC1 do in these assays?
miR-21 FLuc: -32%; GLA inh pH 4.5: -1; Rango complex inh: -3.0%; Rango dissoc inh: inconclusive

Results for CCOC(=S)N/C(=N\S(=O)(=O)c1ccc(C)cc1)c1ccccc1 ?
miR-21 FLuc: -2%; GLA inh pH 4.5: -3; Rango complex inh: 0.0%; Rango dissoc inh: 15%

Results for O=C(Nc1c(S(=O)(=O)c2ccccc2)csc1Br)c1ccccc1Cl ?
miR-21 FLuc: -5%; GLA inh pH 4.5: -3; Rango complex inh: 0.0%; Rango dissoc inh: 1%

What do the screens show for `CCCc1cc(=O)[nH]c(SCC(=O)Nc2cc(S(=O)(=O)N3CCOCC3)ccc2N(CC)CC)n1`?
Rango complex inh: 0.3%; Rango dissoc inh: -6%

How did CC1(C)CC(=O)C=C(NCCN2CCN(C(=S)Nc3ccc(F)cc3)CC2)C1 do in these assays?
miR-21 FLuc: 0%; GLA inh pH 4.5: -1; Rango complex inh: 2.0%; Rango dissoc inh: -1%

How did COc1cccc(CNC(=O)C2CCN(C(=O)N(C)C)CC2)c1 do in these assays?
miR-21 FLuc: -2%; GLA inh pH 4.5: 9; Rango complex inh: 1.2%; Rango dissoc inh: 0%

What do the screens show for `Cc1ccccc1N1C(=O)CC(N2CCN(C(=O)c3ccco3)CC2)C1=O` (stereo not drawn)?
miR-21 FLuc: -3%; Rango complex inh: 2.3%; Rango dissoc inh: -8%

How did O=C(CCc1nnc(C2(c3ccc(Cl)cc3)CCC2)o1)N1CCCC(O)C1 (stereo not drawn) do in these assays?
miR-21 FLuc: -6%; Rango complex inh: 1.4%; Rango dissoc inh: -1%

Results for COc1ccc(NC(=O)c2ccc3[nH]c(C)c(C)c3c2)c(OC)c1 ?
miR-21 FLuc: -27%; Rango complex inh: -2.9%; Rango dissoc inh: 25%

Results for S=C(NC1CCCCC1)N1CCn2cccc2C1c1cccnc1 (stereo not drawn) ?
miR-21 FLuc: 2%; GLA inh pH 4.5: -6; Rango complex inh: -6.2%; Rango dissoc inh: 1%

How did COC(=O)c1ccc(C(=O)OC)c(NC(=S)N2CCCC(C)C2)c1 (stereo not drawn) do in these assays?
miR-21 FLuc: -10%; GLA inh pH 4.5: 1; Rango complex inh: -0.7%; Rango dissoc inh: -9%

How did COc1cc(NC(=O)Cc2nn(C)c(=O)c3ccccc23)cc(OC)c1 do in these assays?
miR-21 FLuc: 5%; GLA inh pH 4.5: 5; Rango complex inh: -0.5%; Rango dissoc inh: 14%

Results for CC(=O)c1ccc(-c2ccccc2[C@H]2[C@H]3C=CC[C@@H](C)[C@@H]3C(=O)N2Cc2ccccc2)cc1 ?
miR-21 FLuc: inconclusive; GLA inh pH 4.5: 1

What do the screens show for `C/C(CC(=O)Nc1ccc(N(C)C)cc1)=N\NC(=O)c1ccc(Cl)cc1`?
miR-21 FLuc: -12%; Rango complex inh: -0.3%; Rango dissoc inh: 2%

Results for O=C(Nc1cccc(-n2cnnn2)c1)c1cc2ccccc2o1 ?
miR-21 FLuc: -20%; Rango complex inh: 0.1%; Rango dissoc inh: -8%

Results for N#Cc1nc(-c2cccc3ccccc23)oc1N ?
Rango complex inh: inconclusive; Rango dissoc inh: -16%

What do the screens show for `Cc1nonc1CN(C)C(=O)c1cc(COc2ccc(F)cc2Cl)on1`?
miR-21 FLuc: -28%; Rango complex inh: 6.8%; Rango dissoc inh: 2%

What do the screens show for `CC(=O)Nc1ccc(S(=O)(=O)NNC(=S)NCc2ccco2)cc1`?
miR-21 FLuc: 0%; Rango complex inh: -1.3%; Rango dissoc inh: 17%

How did CN(C(=O)CCc1ccccc1F)C1CCCN(Cc2ccccc2F)C1 (stereo not drawn) do in these assays?
miR-21 FLuc: -7%; Rango complex inh: 0.4%; Rango dissoc inh: -14%

Results for COC(=O)c1ccc(CSc2nc(C)nc3c2c(=O)n(C)c(=O)n3C)o1 ?
miR-21 FLuc: -5%; GLA inh pH 4.5: -2; Rango complex inh: 1.7%; Rango dissoc inh: 4%

What do the screens show for `C=CCn1c(CCCOc2ccc(Cl)cc2Cl)n[nH]c1=S`?
miR-21 FLuc: -25%; GLA inh pH 4.5: -4; Rango complex inh: -2.4%; Rango dissoc inh: 1%

Results for CC1CCc2c(sc(NC(=O)c3cccs3)c2C(=O)O)C1 (stereo not drawn) ?
miR-21 FLuc: 12%; Rango complex inh: 1.4%; Rango dissoc inh: -19%

Results for Cc1cc2oc(C(=O)NCc3ccccc3)cc(=O)c2cc1C ?
miR-21 FLuc: 0%; Rango complex inh: 6.1%; Rango dissoc inh: -2%

What do the screens show for `Cc1csc(N2CCCC2=O)n1`?
miR-21 FLuc: -1%; GLA inh pH 4.5: 4; Rango complex inh: 1.5%; Rango dissoc inh: 6%

What do the screens show for `CC(C)Oc1ccc(C2NC(=O)c3ccccc3O2)cc1` (stereo not drawn)?
miR-21 FLuc: 0%; Rango complex inh: 3.6%; Rango dissoc inh: 3%

How did O=C(c1cc(-c2ccccc2)n[nH]1)N1CCN(S(=O)(=O)c2ccccc2)CC1 do in these assays?
miR-21 FLuc: -4%; Rango complex inh: 3.8%; Rango dissoc inh: 24%

What do the screens show for `CCc1c(C(=O)Nc2cc(C)cc(C)c2)[nH]c(C)c1C(C)=O`?
miR-21 FLuc: 14%; GLA inh pH 4.5: -3; Rango complex inh: 0.7%; Rango dissoc inh: -8%

Results for c1ccc(Cc2nn[nH]n2)cc1 ?
miR-21 FLuc: -1%; GLA inh pH 4.5: -4; Rango complex inh: 0.1%; Rango dissoc inh: 1%

What do the screens show for `Cc1ccc(SCCN2CCN(CCc3ccccc3)CCC2=O)cc1`?
miR-21 FLuc: -9%; GLA inh pH 4.5: -3; Rango complex inh: -0.9%; Rango dissoc inh: 1%

Results for NC(=O)COc1ccc(/C=N\NC(=O)CC(=O)NCCc2ccccc2)cc1 ?
miR-21 FLuc: 4%; Rango complex inh: 2.3%; Rango dissoc inh: 8%

Results for O=C(O)CNC(=O)C(c1ccccc1)c1ccccc1 ?
miR-21 FLuc: 7%; GLA inh pH 4.5: 10; Rango complex inh: 0.0%; Rango dissoc inh: 14%

How did O=C(CCN1CCOCC1)Nc1cc(C(=O)Nc2ccccc2F)ccc1N1CC2CC(C1)c1cccc(=O)n1C2 (stereo not drawn) do in these assays?
miR-21 FLuc: -12%; Rango complex inh: -2.4%; Rango dissoc inh: -13%

What do the screens show for `COc1ccc(/C=N/NC(=O)CCSc2nc3ccccc3s2)cc1OC`?
miR-21 FLuc: 4%; GLA inh pH 4.5: -2; Rango complex inh: -2.1%; Rango dissoc inh: -4%

How did Cc1ccc(S(=O)(=O)N(C)c2ccc(OC(=O)c3cccs3)cc2)cc1C do in these assays?
Rango complex inh: -1.6%; Rango dissoc inh: -3%

Results for COc1ccc(CNC(=O)c2ccc3nccnc3c2)cc1 ?
miR-21 FLuc: -5%; GLA inh pH 4.5: 6; Rango complex inh: -2.4%; Rango dissoc inh: 1%

Results for Cc1cccc(N(CC(=O)N/N=C/c2cc([N+](=O)[O-])ccc2Cl)S(C)(=O)=O)c1C ?
miR-21 FLuc: -10%; GLA inh pH 4.5: -7; Rango complex inh: -0.5%; Rango dissoc inh: 2%

Results for NC(=O)C1(N2CCCCC2)CCN(C2CC(=O)N(Cc3ccc(N4CCCC4=O)cc3)C2=O)CC1 (stereo not drawn) ?
miR-21 FLuc: -2%; GLA inh pH 4.5: 6; Rango complex inh: 1.8%; Rango dissoc inh: 6%

How did CC1CN(CCc2ccccc2)c2nc3c(c(=O)n(C)c(=O)n3C)n2C1 (stereo not drawn) do in these assays?
miR-21 FLuc: -3%; Rango complex inh: 4.3%; Rango dissoc inh: 1%

Results for COc1ccc(/C(C)=N/NC(=O)CNC(=O)CCc2ccccc2)c(OC)c1 ?
miR-21 FLuc: 14%; GLA inh pH 4.5: 0; Rango complex inh: -0.4%; Rango dissoc inh: 0%

What do the screens show for `N=c1ncn(CC(O)CN2CCOCC2)c2nc(N3CCOCC3)[nH]c12` (stereo not drawn)?
miR-21 FLuc: -2%; GLA inh pH 4.5: -5; Rango complex inh: -4.5%; Rango dissoc inh: -5%

What do the screens show for `c1cnc(N2CCSCC2)nc1`?
miR-21 FLuc: -2%; GLA inh pH 4.5: 2; Rango complex inh: -0.7%; Rango dissoc inh: -9%

What do the screens show for `O=S(=O)(NCC1CCCO1)c1cnc(Cl)c(Cl)c1` (stereo not drawn)?
miR-21 FLuc: 29%; GLA inh pH 4.5: -7; Rango complex inh: 3.8%; Rango dissoc inh: 30%

How did COc1ccc([N+](=O)[O-])cc1NC(=O)CSc1ccc2ccccc2c1 do in these assays?
miR-21 FLuc: 4%; GLA inh pH 4.5: -24; Rango complex inh: -3.2%; Rango dissoc inh: -1%

Results for CCOC(=O)c1cn(CC)c2cc(N3CCN(C)CC3)c(F)cc2c1=O ?
miR-21 FLuc: -7%; Rango complex inh: -1.0%; Rango dissoc inh: 8%

How did Cn1nc(C(=O)OCC(=O)Nc2cccc(S(=O)(=O)N3CCCC3)c2)c2ccccc2c1=O do in these assays?
miR-21 FLuc: 10%; GLA inh pH 4.5: 7; Rango complex inh: -1.0%; Rango dissoc inh: 29%

Results for CCC(Oc1ccc2ccccc2c1)C(=O)O (stereo not drawn) ?
miR-21 FLuc: -4%; GLA inh pH 4.5: 4; Rango complex inh: 0.5%; Rango dissoc inh: -12%

How did O=C(O)c1cccc(OCCN2CCCC2=O)c1 do in these assays?
miR-21 FLuc: 2%; Rango complex inh: -1.9%; Rango dissoc inh: 8%

What do the screens show for `CC1C(=O)N2CCCc3cc(NS(=O)(=O)c4ccc([N+](=O)[O-])cc4)cc1c32` (stereo not drawn)?
Rango complex inh: inconclusive; Rango dissoc inh: -7%

What do the screens show for `O=C1CC2c3ccccc3C1C1C(=O)N(CCO)C(=O)C21` (stereo not drawn)?
miR-21 FLuc: -1%; GLA inh pH 4.5: 0; Rango complex inh: 3.3%; Rango dissoc inh: 1%

How did CN(C1CCCCC1)S(=O)(=O)c1ccccc1 do in these assays?
miR-21 FLuc: -4%; GLA inh pH 4.5: 3; Rango complex inh: 0.9%; Rango dissoc inh: -10%

How did CCc1nc(SCC(=O)c2ccc(Cl)s2)c2oc3ccccc3c2n1 do in these assays?
miR-21 FLuc: -15%; GLA inh pH 4.5: 2; Rango complex inh: inconclusive; Rango dissoc inh: inconclusive
